E coli growth – E. coli growth inhibition; Escherichia coli growth, OD600, 23 h; active compounds read low; OD600 absorbance (no concentration beside the values); 330,000 compounds, 0.21% hits;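 active = OD600 absorbance below the run mean of sample wells minus 3.6 SD, in any replicate, cut at about 0.56 in these data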;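 note: stock transfer was 300 nL into about 60 µL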
FGF22 binding – FGF22 (human) thermal shift binding; Q9HCT0; recombinant FGF22 thermal shift, SYPRO orange fluorescence; percent of sucrose octasulfate shift, DMSO zero; calls only at 9.99 µM; 340,000 compounds, 1.5% hits; AID 651658;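 active = melting point raised past a set limit in the mean and every replicate; three in four hits are not shown here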
Target sequence (Q9HCT0 whole entry, looked up): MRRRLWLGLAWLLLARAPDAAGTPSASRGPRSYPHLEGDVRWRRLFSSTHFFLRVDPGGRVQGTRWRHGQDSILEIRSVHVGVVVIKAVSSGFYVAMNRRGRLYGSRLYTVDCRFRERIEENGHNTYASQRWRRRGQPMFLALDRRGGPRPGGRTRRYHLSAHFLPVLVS
UCH37 inh – human UCH37 deubiquitinating enzyme inhibition | purified proteasome/UCH37, Ub-AMC cleavage fluorescence | 330,000 compounds, 0.33% hits | inhibition, % (concentration not given with the values) | AID 588478;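 active = mean of two replicates above 20%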;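 note: 0% = compound-free wells with enzyme and 100% = wells lacking proteasome; stock transfer was 100 nL into about 20 µL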
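Material: human UCH37 enzyme supplied as purified proteasome complex / Amount: 0.15 nM proteasome as dispensed / Buffer or medium: pH 7.4 Tris-HCl (50 mM) with ovalbumin, ATP-MgCl2, DTT / Times: preincubation 30 min, reaction 25 min, room temperature / Technique: AMC fluorescence from Ub-AMC cleavage, excitation 355 nm, emission 460 nm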
HNF4A DNA FP – change in binding of human HNF4 alpha to DNA; P41235; HNF4a-FITC DNA binding, fluorescence polarization, 1 h; activity change, % at 10 µM; 360,000 compounds, 0.3% hits; in the data active = activity change above about 30%, passing the limit was not always enough;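 note: controls were the assay level and a saturating level of protein; the project sought stronger binding though the title names inhibitors; some compounds called inactive have numbers as strong as hits; positive values seem to mean higher polarization but the record does not say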
LANA-H2B inh – blocks KSHV LANA binding to histone H2A/H2B; cell-free LANA-H2A/H2B peptide, fluorescence polarization; 320,000 compounds, 0.6% hits; inhibition, % (no concentration beside the values); in the data active = inhibition mostly above about 10%, no sharp cut-off; inactive = mostly below about 6.7%;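 note: stock transfer was 7.5 nL into about 10 µL; 0% = median of vehicle wells and 100% = median of positive control wells; one replicate is shown; the record names a cut of 25% in any replicate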
ALR inh – blocks human ALR sulfhydryl oxidase activity | P55789 | purified ALR, DTT oxidation, H2O2 HRP-luminol luminescence | inhibition, % (concentration not given with the values) | 290,000 compounds, 3.8% hits | AID 485317;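 active = mean and each replicate at 75% or more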;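 note: stock transfer was 7.5 nL into about 7.5 µL; 0% = neutral wells and 100% = wells with inactivated enzyme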
Target sequence (P55789 whole entry, looked up): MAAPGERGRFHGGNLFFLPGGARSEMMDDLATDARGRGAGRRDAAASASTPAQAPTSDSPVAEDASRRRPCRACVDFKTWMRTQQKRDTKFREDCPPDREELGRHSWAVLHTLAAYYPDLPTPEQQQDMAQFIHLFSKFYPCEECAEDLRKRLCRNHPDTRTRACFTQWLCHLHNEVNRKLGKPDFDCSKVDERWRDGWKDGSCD
B2AR ag – agonists of human beta-2 adrenergic receptor inducing internalization; Am2.2-beta2AR cells, FAP receptor internalization, flow cytometry; reference of the scale not given here; response, % (no concentration beside the values); 340,000 compounds, 0.43% hits; AID 504454;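 active = response above a set limit, near 3 SD of response in nonfluorescent compounds, cut at about 42% in these data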;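 note: stock transfer was 100 nL into about 11 µL; a reference agonist was the positive control; negative values mostly stem from fluorescent compounds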
Target sequence (P07550 whole entry, looked up): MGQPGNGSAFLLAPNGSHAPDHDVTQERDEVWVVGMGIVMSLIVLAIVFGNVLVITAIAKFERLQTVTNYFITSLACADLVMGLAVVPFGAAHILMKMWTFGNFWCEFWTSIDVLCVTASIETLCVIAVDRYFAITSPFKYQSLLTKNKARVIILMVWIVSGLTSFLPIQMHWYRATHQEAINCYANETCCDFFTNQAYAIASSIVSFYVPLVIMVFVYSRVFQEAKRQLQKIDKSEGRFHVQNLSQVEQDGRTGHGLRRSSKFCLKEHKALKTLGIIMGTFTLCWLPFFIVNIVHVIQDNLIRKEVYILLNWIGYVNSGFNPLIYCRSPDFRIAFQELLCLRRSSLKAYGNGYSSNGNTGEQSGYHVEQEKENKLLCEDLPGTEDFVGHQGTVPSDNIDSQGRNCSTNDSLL
Numbers without * were called inactive. These rows are one share of the data; count on the stated rates, not on these rows.

COc1ccc2c(c1OC)C(=O)N1N=C(c3ccc(O)cc3)CC21 (stereo unspecified) was read as E coli growth 0.68, UCH37 inh 3.0, HNF4A DNA FP 0.0, LANA-H2B inh 4.7, ALR inh 99* and B2AR ag -5.
For COc1ccc(-c2nc(NC(=O)c3ccc(OCC(=O)Nc4ccc(F)cc4)c(OC)c3)sc2C)cc1 the results were E coli growth 0.71, UCH37 inh -95, HNF4A DNA FP 6.9, LANA-H2B inh 0.3, ALR inh 32 and B2AR ag 12.
O=[N+]([O-])c1ccccc1S(=O)(=O)NC1CC2CCC1C2 (stereo unspecified) was read as E coli growth 0.7, FGF22 binding inactive, UCH37 inh 4.4, HNF4A DNA FP -0.5, LANA-H2B inh -2.2, ALR inh -4 and B2AR ag 1.
For O=C(NC(=S)Nc1ccc(N2CCCC2)cc1)c1ccccc1[N+](=O)[O-] the results were E coli growth 0.73, FGF22 binding inactive, UCH37 inh 5.9, HNF4A DNA FP 3.3, LANA-H2B inh -4.5, ALR inh -2 and B2AR ag 14.
Cc1cccc(N2CCN(C(=O)c3ccc4nc[nH]c4c3)CC2)c1C was read as E coli growth 0.68, FGF22 binding inactive, UCH37 inh -2.0, HNF4A DNA FP -4.0, LANA-H2B inh 1.7, ALR inh 12 and B2AR ag -5.
For CN(Cc1ccccc1)C(=O)c1[nH]cnc1C(=O)Nc1ccccc1 the results were E coli growth 0.7, FGF22 binding inactive, UCH37 inh 4.5, HNF4A DNA FP 1.2, LANA-H2B inh -6.1, ALR inh 47 and B2AR ag -7.
`Cc1ccc(-n2c(CNc3ccc(F)cc3)nnc2SCC(=O)NCc2ccco2)cc1` gave E coli growth 0.69, UCH37 inh 3.3, HNF4A DNA FP 3.5, LANA-H2B inh -2.0, ALR inh 10 and B2AR ag 1.
For CC(=O)c1cccc(OCc2cc(C(=O)N3CC4C[C@@H]5CC3C[C@H](C4)C5)no2)c1 the results were E coli growth 0.7, FGF22 binding inactive, UCH37 inh 4.7, HNF4A DNA FP 0.4, LANA-H2B inh -3.9, ALR inh -1 and B2AR ag -3.
O=C1c2ccccc2C(O)(c2ccccc2)N1c1ccc([N+](=O)[O-])cc1Cl (stereo unspecified) was read as E coli growth 0.67, UCH37 inh 8.7, HNF4A DNA FP 5.2 and B2AR ag 4.
O=C(Nc1ncn[nH]1)c1ccccc1Br was read as E coli growth 0.68, FGF22 binding inactive, UCH37 inh 2.7, HNF4A DNA FP -0.5, LANA-H2B inh -2.4, ALR inh -4 and B2AR ag -2.
`Cc1cc(C)c2nc(C)cc(Nc3ccc(C(=O)NCCO)cc3)c2c1` gave E coli growth 0.7, FGF22 binding inactive, UCH37 inh 14, HNF4A DNA FP 2.5, LANA-H2B inh -1.0, ALR inh 1 and B2AR ag -8.
CC(=O)NS(=O)(=O)c1ccc(NC(=O)CC(C)c2ccccc2)cc1 (stereo unspecified) was read as E coli growth 0.67, FGF22 binding inactive, UCH37 inh 2.1, HNF4A DNA FP -2.4, LANA-H2B inh -3.8, ALR inh -1 and B2AR ag 6.
CCCCOc1cccc(/C=C(\C#N)C(=O)NC2CC2)c1 was read as E coli growth 0.68, FGF22 binding inactive, UCH37 inh 0.2, HNF4A DNA FP -0.1, LANA-H2B inh -0.4, ALR inh 47 and B2AR ag 8.
`CCOc1ccc(C(=O)/C=C/c2cc(OC)c(OC)c(OC)c2)cc1` gave E coli growth 0.7, FGF22 binding inactive, UCH37 inh 4.5, HNF4A DNA FP -1.8, LANA-H2B inh 1.9, ALR inh 9 and B2AR ag 11.
`Cc1ncc(CN2CCC(N3CCC(C(=O)N4CCCC4)CC3)CC2)s1` gave E coli growth 0.67, UCH37 inh 3.3, HNF4A DNA FP 0.5, LANA-H2B inh -5.8, ALR inh 0 and B2AR ag 4.
Screening CCc1ccc(-c2c(C)sc(NC(C)=O)c2C(N)=O)cc1 returned E coli growth 0.7, UCH37 inh 3.4, HNF4A DNA FP -0.8, LANA-H2B inh 2.9, ALR inh -1 and B2AR ag -15.
For Cc1nnc(SCC(=O)NCC2CCCCC2)n(N)c1=O the results were E coli growth 0.69, UCH37 inh -1.0, HNF4A DNA FP 0.3, LANA-H2B inh 1.6, ALR inh -2 and B2AR ag 1.
For Cn1c(SCc2ccccc2)nc(C(F)(F)F)cc1=O the results were E coli growth 0.69, FGF22 binding inactive, UCH37 inh 6.0, HNF4A DNA FP -2.5, LANA-H2B inh 4.4, ALR inh 2 and B2AR ag 0.
For O=C(CNC(=O)c1ccco1)NCC(=O)OCc1cccc(C(=O)Oc2ccccc2)c1 the results were E coli growth 0.7, UCH37 inh 4.7, HNF4A DNA FP -3.3, LANA-H2B inh -0.1, ALR inh -10 and B2AR ag -8.
Screening CCOC(=O)c1c(C)[nH]c(C(=O)N/N=C/c2ccc(OC)c(OC)c2)c1C returned FGF22 binding inactive, HNF4A DNA FP 0.9, LANA-H2B inh 1.3, ALR inh -7 and B2AR ag -3.
For C=CCNC(=O)CN1C(=O)c2cccc3cccc1c23 the results were FGF22 binding inactive, HNF4A DNA FP -0.4, LANA-H2B inh 3.4, ALR inh -13 and B2AR ag -8.
`CC(=O)c1c(C)[nH]c(C(=O)OCC(=O)N2CCc3ccccc3C2)c1C` gave E coli growth 0.7, FGF22 binding inactive, UCH37 inh -1.2, HNF4A DNA FP 1.1, LANA-H2B inh 2.1, ALR inh -2 and B2AR ag 1.
`COc1ccc(CSc2nc(C)cc(C)c2C#N)cc1` gave E coli growth 0.7, FGF22 binding inactive, UCH37 inh 0.5, HNF4A DNA FP -1.8, LANA-H2B inh -3.2, ALR inh -4 and B2AR ag -22.
Screening Cc1cc(C)cc(NC(=S)NCc2ccc(S(N)(=O)=O)cc2)c1 returned E coli growth 0.64, FGF22 binding inactive, UCH37 inh -0.2, HNF4A DNA FP 0.2, LANA-H2B inh 3.4, ALR inh -11 and B2AR ag 4.
Cc1cc2cc(CNC(=O)c3cccc([N+](=O)[O-])c3)ccc2n1C was read as E coli growth 0.75, FGF22 binding inactive, UCH37 inh 1.7, HNF4A DNA FP 6.7, LANA-H2B inh 2.6, ALR inh -28 and B2AR ag -6.
O=S(=O)(c1ccc(Cl)cc1)c1snnc1-c1ccccc1 was read as E coli growth 0.75, UCH37 inh -1.7, HNF4A DNA FP -4.2, LANA-H2B inh -1.2, ALR inh 2 and B2AR ag 26.
Screening O=C1c2cccc3cccc(c23)C(=O)N1CCN1CCN(C(=S)Nc2ccc(Cl)cc2)CC1 returned E coli growth 0.72, FGF22 binding inactive, UCH37 inh 5.8, HNF4A DNA FP 0.8, LANA-H2B inh 1.9, ALR inh -6 and B2AR ag -15.
O=C(CCSC1=NCCCN1)c1ccc(F)cc1 was read as FGF22 binding inactive, HNF4A DNA FP -4.0 and B2AR ag -15.
O=C1CCCC2=C1C(c1cn(-c3ccccc3)nc1-c1cccs1)c1c([nH]c(=O)[nH]c1=O)N2 (stereo unspecified) was read as E coli growth 0.73, UCH37 inh -25, HNF4A DNA FP 0.6, LANA-H2B inh 15, ALR inh 9 and B2AR ag 18.
Screening COCCCN(C(=O)CCSc1ccc(F)cc1)c1c(N)n(Cc2ccccc2)c(=O)[nH]c1=O returned E coli growth 0.72, FGF22 binding inactive, UCH37 inh 0.0, HNF4A DNA FP 1.6, LANA-H2B inh -0.3, ALR inh -8 and B2AR ag 3.
`COc1cc(C(=O)N(Cc2cccc(Cl)c2)C2CCS(=O)(=O)C2)cc(OC)c1OC` (stereo unspecified) gave E coli growth 0.67, UCH37 inh 1.5, HNF4A DNA FP -3.2, LANA-H2B inh 1.8, ALR inh 0 and B2AR ag -3.
O=C(NCc1ccco1)C1CC(=O)N(c2ccc(Cl)cc2)C1 (stereo unspecified) was read as E coli growth 0.71, UCH37 inh 4.4, HNF4A DNA FP 6.4, LANA-H2B inh 4.9, ALR inh -15 and B2AR ag 0.
Screening Nn1c(-c2ccco2)n[nH]c1=S returned E coli growth 0.7, UCH37 inh 4.6, HNF4A DNA FP 0.2, LANA-H2B inh -2.2, ALR inh 1 and B2AR ag 9.
COc1ccc(C)cc1NC(=O)CN1C(=O)CSc2ccc(S(=O)(=O)N3CCCC3)cc21 was read as E coli growth 0.67, FGF22 binding inactive, UCH37 inh 7.6, HNF4A DNA FP 0.4, LANA-H2B inh -5.1, ALR inh -6 and B2AR ag -6.
Cc1cccc2cc(CN(CC3CCCO3)C(=S)NCc3ccco3)c(=O)[nH]c12 (stereo unspecified) was read as E coli growth 0.63, UCH37 inh -2.2, HNF4A DNA FP 0.7, LANA-H2B inh 2.5, ALR inh 9 and B2AR ag 8.
`CC(C)c1cc(O)c(-c2ccccc2)c(=O)n1-c1ccc(Cl)cc1` gave E coli growth 0.69, FGF22 binding inactive, UCH37 inh -1.6, HNF4A DNA FP 3.0, LANA-H2B inh -0.5, ALR inh -2 and B2AR ag -4.
Screening Cc1ccc(OCC(=O)Nc2cc(NC(=O)COc3ccc(C)cc3)cc(C(=O)O)c2)cc1 returned E coli growth 0.67, FGF22 binding inactive, UCH37 inh 1.5, HNF4A DNA FP 2.3, LANA-H2B inh 4.2, ALR inh 3 and B2AR ag -4.
`CC(=NNC(=S)N1CCCCCC1)c1ccccn1` gave FGF22 binding inactive, HNF4A DNA FP -6.1 and B2AR ag -9.
`C=C(C)CNC(=S)N=Nc1c(O)[nH]c2ccc([N+](=O)[O-])cc12` gave E coli growth 0.7, FGF22 binding inactive, UCH37 inh 7.1, HNF4A DNA FP -1.9, LANA-H2B inh -5.0, ALR inh -2 and B2AR ag 3.
For Cc1ccccc1NC(=O)C1CCCN(C(=O)NCc2ccccc2)C1 (stereo unspecified) the results were E coli growth 0.66, FGF22 binding inactive, UCH37 inh 2.5, HNF4A DNA FP -2.2, LANA-H2B inh 1.4, ALR inh -7 and B2AR ag 1.

3 records picked at random from the list so far:
O=S(=O)(c1ccc(Cl)cc1)c1snnc1-c1ccccc1 was read as E coli growth 0.75, UCH37 inh -1.7, HNF4A DNA FP -4.2, LANA-H2B inh -1.2, ALR inh 2 and B2AR ag 26.
Screening Nn1c(-c2ccco2)n[nH]c1=S returned E coli growth 0.7, UCH37 inh 4.6, HNF4A DNA FP 0.2, LANA-H2B inh -2.2, ALR inh 1 and B2AR ag 9.
Cc1cccc2cc(CN(CC3CCCO3)C(=S)NCc3ccco3)c(=O)[nH]c12 (stereo unspecified) was read as E coli growth 0.63, UCH37 inh -2.2, HNF4A DNA FP 0.7, LANA-H2B inh 2.5, ALR inh 9 and B2AR ag 8.

(continued)
For CCN(Cc1cn2cccnc2n1)C1CCCCC1 the results were E coli growth 0.74, FGF22 binding inactive, UCH37 inh -264, HNF4A DNA FP -2.5, LANA-H2B inh 2.4, ALR inh -7 and B2AR ag -6.
CC1C(=O)N2CCCc3cc(S(=O)(=O)NCc4ccc(Cl)cc4)cc1c32 (stereo unspecified) was read as E coli growth 0.71, FGF22 binding inactive, UCH37 inh -0.9, HNF4A DNA FP 1.8, LANA-H2B inh -3.7, ALR inh -1 and B2AR ag -3.
For COc1ccc(NC(=O)c2cccc(OC(F)F)c2)cc1Cl the results were E coli growth 0.61, UCH37 inh 1.8, HNF4A DNA FP 3.6, LANA-H2B inh -2.4, ALR inh -5 and B2AR ag 34.
`COC1=CCC2([N+](=O)[O-])CN(CCO)CC1([N+](=O)[O-])C2` (stereo unspecified) gave E coli growth 0.68, UCH37 inh 7.0, HNF4A DNA FP 0.5, LANA-H2B inh -1.1, ALR inh 7 and B2AR ag -7.
Screening Cc1cccc(NC(=O)c2cccc3c2-c2ccccc2C3=O)n1 returned E coli growth 0.67, FGF22 binding inactive, UCH37 inh -0.1, HNF4A DNA FP 1.1, LANA-H2B inh -6.3, ALR inh 0 and B2AR ag -1.
For O=C(O)C1CCCN1S(=O)(=O)c1ccc(Br)cc1 (stereo unspecified) the results were E coli growth 0.67, FGF22 binding inactive, UCH37 inh 0.0, HNF4A DNA FP 4.0, LANA-H2B inh 0.6 and B2AR ag -2.
